Compound activity (PubChem BioAssay)
H5N1 CPE: MDCK cell protection from H5N1 avian flu; AID 740, 2007; cytopathic effect, luminescence, 72 h; hits give high values; no value below 0 was filed and about half of the inactive calls have no number; reference of the scale not given here; hit rate 0.07% among 96,000; inhibition, % at 50 µM; in the data active = inhibition above about 25%
Active calls of the source: *; i = inactive. A portion of the library; count on the stated rates, not on these rows.

SMILES	H5N1 CPE
CCCc1[nH]nc2c1C(c1ccc(OCCN3CCOCC3)c(OC)c1)C(C#N)=C(N)O2 (stereo not drawn)	i
COc1ccc(CNS(=O)(=O)c2ccc(OC)cc2)cc1	0.2
c1ccc(Oc2nc(N3CCOCC3)nc(N3CCOCC3)n2)cc1	0.1
COc1cccc(N2C(=O)c3ccncc3C2=O)c1	0.0
N#Cc1cc(-c2ccccc2)nnc1Oc1ccccc1Cl	1.7
Nc1nc(NC(=O)CCCC(=O)O)nn1-c1ccccc1	0.4
CC(=O)c1cccc(NC(=O)c2csc(-n3nc(C)cc3C(F)(F)F)n2)c1	i
CCn1cc(C(=O)N2CCC3(CC2)OCCO3)c(=O)c2cc(S(=O)(=O)N3CCCC3)ccc21	0.9
CCOc1ccc(S(=O)(=O)NCc2ccncc2)cc1	0.4
CN1CCN(NC(=O)c2ccccc2F)CC1	0.1
CCc1cn(S(=O)(=O)c2ccccc2OC)nc1N	1.1
CCOC(=O)c1ccc(N=c2sc(C(=O)OC)cc(=O)n2CCCN2CCOCC2)cc1	i
Cc1ccn2c(C(=O)CSc3ccc(Cl)cc3)c(C)nc2c1	i
CCOc1ccc(NC(=O)Cn2c(=O)oc3ccccc32)cc1	0.0
CCCN(CCC)CCCNC(=O)C1c2cc(OC)c(OC)cc2C(=O)N(C)C1c1cccs1 (stereo not drawn)	0.4
Cc1ccc2c(c1)c(C)cc(=O)n2CCC(=O)O	2.1
CCNC(=O)COC(=O)C1C(C(=O)OCC)=C(C)NC(C)=C1C(=O)OCC	0.8
CC(/C=C1\SC(=S)N(NC(=O)c2ccc(C)cc2)C1=O)=C\c1ccccc1	i
Cc1cc(OC(=O)c2ccccc2Cl)cc(=O)n1C	i
CCOCC(=O)Nc1nnc(COc2ccc(Cl)cc2)s1	i
CCCCn1c(=O)[nH]c(=O)c2c1nc(-c1ccsc1)n2Cc1ccccc1	0.3
CCCNC(=O)c1ccc2c(c1)C1C3CCC(C3)C1C(c1ccccc1)N2 (stereo not drawn)	i
CCOc1ccc(-c2nc(C#N)c(N3CCCCCC3)o2)cc1	3.3
COc1ccc(-c2cnnn2-c2ccc(NC(=O)c3ccco3)cc2)cc1OC	2.4
COc1cc(-c2nnn(CC(=O)N3CCOCC3)n2)cc(OC)c1OC	i
O=C(CN(Cc1ccccc1Cl)C(=O)c1ccc(CN2CCOCC2)o1)NCC1CCCO1 (stereo not drawn)	i
COc1cc(C(=O)Nc2cc(Cl)ccc2C)c(-n2cnnn2)cc1OC	i
COc1ccc(S(=O)(=O)N(CC(=O)N2CCN(c3ccccc3)CC2)c2ccccc2)cc1	0.1
COc1ccc(C2C=C(c3ccc(C)c(C)c3)Nc3ncnn32)c(OC)c1OC (stereo not drawn)	0.8
CCCCNC(=O)c1onc(CSc2ccc(C)c(C)c2)c1C(=O)O	i
CCCN(CCC)C(=O)Cn1ccc(=N)c2ccccc21	0.3
CCc1ccc(-c2c(C)sc(NC(C)=O)c2C(N)=O)cc1	i
O=C1NC(=O)C2(Cc3ccccc3N3CCCC32)C(=O)N1c1cccc(Cl)c1 (stereo not drawn)	0.2
Cc1ccc(S(=O)(=O)NCC(=O)N(CC(=O)NC(C)(C)C)Cc2cccs2)cc1	i
COc1ccc2nc(N3CCCC3)[nH]c2c1	i
CCOC(=O)N1CCC(N(CCOC)C(=O)Nc2ccc(Cl)c(Cl)c2)CC1	i

4 entries already listed, ordered by molar mass, lowest first:
SMILES	H5N1 CPE
COc1ccc2nc(N3CCCC3)[nH]c2c1	i
CCCN(CCC)C(=O)Cn1ccc(=N)c2ccccc21	0.3
COc1cc(C(=O)Nc2cc(Cl)ccc2C)c(-n2cnnn2)cc1OC	i
CCOC(=O)N1CCC(N(CCOC)C(=O)Nc2ccc(Cl)c(Cl)c2)CC1	i

Additional compounds:
SMILES	H5N1 CPE
CCn1c(NC(=O)c2cccs2)c(-c2cccs2)c(=O)c2ccccc21	0.8
Cc1cc2nnc(SC(C)C#N)n2c2ccccc12 (stereo not drawn)	1.8
O=C(NC1CCCCC1)N1CCN(C(=O)c2ccco2)CC1	i
CCOC(=O)c1cccc(NC(=O)CSc2nnc(COc3ccccc3)n2CC)c1	i
COc1ccc(N2CCN(c3nc(=S)n(-c4ccccc4)c(C)c3C(C)=O)CC2)cc1	i
O=C(Oc1csc(=S)n1C(=O)c1ccccc1)c1ccccc1	0.3
COC(=O)c1sc(NC(=O)COc2ccccc2)nc1C	i
CCCOc1ccc(OCCSc2nnc(N)s2)cc1	i
CCOC(=O)C1=C(CSc2nc(-c3ccccc3)ccc2C#N)OC(N)=C(C#N)C1c1ccccc1 (stereo not drawn)	i
CCOc1ccc(-c2cc(C(=O)NCCCN3CCN(CC)CC3)c3ccccc3n2)cc1	i
Cc1cc(C)nc(SCC(=O)Nc2cc(C)on2)n1	0.8
CCn1c(-c2csc(-c3ccc(Cl)cc3)n2)n[nH]c1=S	i
COc1ccccc1CSc1nc2ccccc2[nH]1	2.1
Cc1ccc(N(C)C(=O)Oc2ccc(C(=O)c3ccc(Cl)cc3)cc2)cc1	i
CCN(CC)C(=O)C1CCCN(C(=O)Nc2ccccc2)C1 (stereo not drawn)	i
CC(=O)c1ccc(NC2=C(N3CCOCC3)C(=O)c3ccccc3C2=O)cc1	i
CCc1ccccc1N1C(=O)C2CC(C)=C(C)CC2C1=O (stereo not drawn)	1.8
COc1ccc(C)cc1NC(=O)c1ccc(N(C)S(C)(=O)=O)cc1	2.0
C/C(=C\C(=O)c1cccnc1)Nc1ccc(C(=O)O)cc1	0.7
Brc1ccc2c(c1)C(c1ccc(N3CCOCC3)cc1)=NNC(c1cccs1)=N2	i
Cc1cc2oc(=O)cc(CN3CCc4ccccc43)c2cc1Cl	0.6
O=C(Nc1ccc(N2CCCC2=O)cc1)c1cccc(F)c1	0.6
O=C1C(C2=NC(C(=O)O)C3C(=O)N(c4ccc(Cl)cc4)C(=O)C23)=C(O)c2ccccc21 (stereo not drawn)	0.5
Cc1ccc(S(=O)(=O)N/N=C2/CC(c3ccccc3)Oc3ccccc32)cc1[N+](=O)[O-] (stereo not drawn)	0.8
Cc1cc(C)c(C#N)c(SCC(=O)Nc2ccccc2C(N)=O)n1	1.2
CCOC(=O)C1C(=O)Nc2nc(C)nn2C1c1ccccc1 (stereo not drawn)	0.3
O=C(NCc1cccs1)C1CCCN(S(=O)(=O)c2cnc[nH]2)C1 (stereo not drawn)	0.2
CCNc1oc(COc2cccc(C)c2)nc1C#N	i
COc1ccc(C2CC(C(F)(F)F)n3nc(C(=O)NCCN4CCOCC4)cc3N2)cc1 (stereo not drawn)	i
COc1ccc(C(C#N)N2N=C(C)CC2(C)C)cc1 (stereo not drawn)	i
c1coc(CNc2nc(-c3ccncc3)cs2)c1	1.8
CCc1noc(C)c1C(=O)N1CCOCC1	0.9
Cc1cccc(CC(=O)Nc2cc(=O)n(C)c(=O)n2C)c1	i
Clc1ccc(C2N3CCCN23)c(Cl)c1 (stereo not drawn)	i
COCCn1nnnc1CN(Cc1cc2cc(OC)c(OC)cc2[nH]c1=O)C1CCCC1	i
CC(C)(C)NC(=O)C12CCC(C)(c3nc4ccccc4nc31)C2(C)C (stereo not drawn)	i
C[n+]1ccc(/C=C/c2ccc(Br)cc2)cc1	4.2
Cc1ccc(-c2nc(CS(=O)(=O)CC(=O)N3CCCCCC3)c(C)o2)cc1	1.7
COC(=O)c1c(C)oc2ccc(NS(=O)(=O)c3cc(OC)ccc3OC)cc12	1.7
Cc1ccccc1NC(=O)CN1C(=O)NC2(CCCCC2)C1=O	i
CCCc1cc(=O)[nH]c(SCC(=O)C(C)(C)C)n1	0.9
CCn1cc(C(=O)OCC(=O)Nc2c(C)n(C)n(-c3ccccc3)c2=O)c(=O)c2ccc(C)nc21	i
CCCC(C)n1[nH]c(=O)c2c1NC(=O)CSC2c1ccc(OC)cc1 (stereo not drawn)	i
CCOC(=O)c1ccc(S(=O)(=O)Nc2ccc3cn[nH]c3c2)cc1	0.2
Cc1conc1NC(c1cccs1)c1ccc2cccnc2c1O (stereo not drawn)	i
Fc1ccccc1N1CCN(c2ncnc3[nH]ncc23)CC1	i
COCCNC(=O)c1ccccc1-c1nc(-c2ccccc2OC)no1	0.7
COc1ccc(OCC(=O)NC2CC(C)(C)NC(C)(C)C2)cc1	i
COc1ccc(CCn2c(=O)[nH]c3cc(C(=O)NCCN4CCOCC4)ccc3c2=O)cc1OC	i
O=C(Cc1ccccc1)NCCSCc1ccco1	i
CC(NCc1ccc(Cl)cc1)C(O)c1ccccc1 (stereo not drawn)	i
O=C1c2ccccc2C(O)N1Cc1ccccc1Cl (stereo not drawn)	i
CS(=O)(=O)N1CCCC(c2nc(-c3ccc(S(=O)(=O)NCc4ccccc4)cc3)no2)C1 (stereo not drawn)	2.5
Cc1ccc(Cn2c(Sc3ncccn3)nc3c2c(=O)[nH]c(=O)n3C)cc1	5.4
CC(C)Cc1nnc(NC(=O)CC(=O)Nc2ccccc2C(=O)O)s1	0.6
CCOC(=O)c1cc(-c2ccccc2)sc1NC(=O)CSc1nnnn1C	i
O=C(CSCc1n[nH]c(=O)[nH]1)NCCOc1cccc(Oc2ccccc2)c1	1.7
Cc1ccc(CN2CCN(CC(=O)NC(C)CCc3ccccc3)C2=O)cc1 (stereo not drawn)	2.0
CC(Oc1ccc(C(=O)NC2CCCCC2)cc1)C(=O)O (stereo not drawn)	i
COC(=O)c1ccc(-n2c(C)nc3ccccc3c2=O)cc1	i

(continued)
SMILES	H5N1 CPE
C=CCN1C(=O)C(CC(=O)Nc2ccc(OC)cc2)N(Cc2ccco2)C1=S (stereo not drawn)	0.0
CC(=O)Nc1ccc(C(=O)N2CCCC2)cc1	0.0
COc1cccc(-c2cc(C(=O)Nc3c(C)nn(Cc4ccccc4C)c3C)no2)c1	i
COc1ccc(NC(=O)CSc2ccc3c(c2)OCCO3)cc1OC	0.0
CCC(C)OC(=O)C1=C(C)NC2=C(C(=O)C(C(=O)OC)C(C)C2)C1c1ccc(N(C)C)cc1 (stereo not drawn)	i
COC(=O)c1c(-c2ccccc2)csc1NC(=O)CSc1ncnc2sc(C)c(C)c12	i
O=C(COc1ccccc1)N(CCc1ccccc1)c1nc(-c2ccc(F)cc2)cs1	2.0
Cc1ccc(-n2c(C)cc(/C=N/NC(=O)c3ccncc3)c2C)c(C)c1	0.3
Cn1c(=O)n(Cc2ccccc2)c(=O)c2c1nc1n2CCCN1CCc1ccccc1	i
CCOC(=O)c1c(NC(=O)C2C3CCC(O3)C2C(=O)O)sc(C)c1-c1ccc(C)cc1 (stereo not drawn)	i
CCOc1cc(/C=C2/N=C(c3ccc(C(C)(C)C)cc3)OC2=O)cc(Cl)c1OS(C)(=O)=O	i
Cc1ccc(S(=O)(=O)/N=C(\N)Nc2nc(C)c3cc(C)ccc3n2)cc1	1.1
Cc1cc(N2CCCCC2)nc2ccc(NC(=O)CCC(=O)NCCC(C)C)cc12	i
O=C(O)c1ccc2c(c1)C(=O)N(NC(=O)c1ccccc1)C2=O	i
C=CCn1c(SC/C=C/c2ccccc2)nnc1-c1sc(N)nc1C	i
CCN(CC)C(=O)c1sc2nc(-c3ccncc3)[nH]c(=O)c2c1C	0.3
CCOc1ccc(OCC)c(NC(=O)CC2Oc3ccc(C)cc3NC2=O)c1 (stereo not drawn)	i
OC(CNC1CCCC1)COc1c(F)cc(Br)cc1F (stereo not drawn)	i
c1coc(C2Nc3ccccc3-c3nc4ccccc4n32)c1 (stereo not drawn)	i
CCCC(=O)N1CCN(c2ccc(NC(=O)C(C)(C)C)cc2)CC1	0.5
C/C(=N\OCC(=O)N/N=C/c1ccccc1)c1cccs1	0.8
COC(=O)Cc1cc(=O)n(-c2ccccc2)[nH]1	0.3
Cc1cc(C)cc(OCC(=O)OCCN2C(=O)c3ccccc3C2=O)c1	0.1
Cc1cccc(C)c1NC1=NC2(CCCCC2)N=C(N)N1	i
CCN(CC)CCn1c2ccccc2c2cnc(N)c(C#N)c21	7.7
COCCCn1cnc2c(c1=O)c1nc3ccccc3nc1n2-c1ccc(C)cc1	3.2
Cc1cc(C(=O)NCc2ccco2)cs1	1.0
CCN(CC)CCSc1nc(O)c(-c2ccccc2)c(=O)[nH]1	i
Cc1ccc2nc(SCC(=O)Nc3c(C)n(C)n(-c4ccccc4)c3=O)[nH]c2c1	i
Cn1c(=O)[nH]c(=O)c2c1nc(Br)n2Cc1ccccc1Cl	1.4
C=CCN(C(=O)CCC(=O)O)C1CC(=O)N(c2ccc(OCCC)cc2)C1=O (stereo not drawn)	1.0
Cc1c(O)ccc2c3c(c(=O)oc12)CCC(C)C3 (stereo not drawn)	0.2
C=CCn1c(SCc2nc3ccccc3[nH]2)nnc1-c1cccc(OC)c1	0.1
Cc1ccc(CNS(=O)(=O)c2ccc(C(C)(C)C)cc2)n1C	i
CC(C)(C)OC(=O)NNC(=S)NCc1ccc(Cl)cc1	0.1
Cc1ccc(N2CCN(C(=O)c3ccccc3NC(=O)C3CC=CCC3C(=O)O)CC2)cc1 (stereo not drawn)	0.8
O=C(NCCC1=CCCCC1)C1CCN(S(=O)(=O)N2CCOCC2)CC1	0.7
COc1ccc(-c2cc(-c3ccc(OC)c(OC)c3)n[nH]2)c(O)c1	i

Of the compounds above, 14 have a thiophene ring, fused or not.
SMILES	H5N1 CPE
CCCN(CCC)CCCNC(=O)C1c2cc(OC)c(OC)cc2C(=O)N(C)C1c1cccs1 (stereo not drawn)	0.4
CCCCn1c(=O)[nH]c(=O)c2c1nc(-c1ccsc1)n2Cc1ccccc1	0.3
CCc1ccc(-c2c(C)sc(NC(C)=O)c2C(N)=O)cc1	i
Cc1ccc(S(=O)(=O)NCC(=O)N(CC(=O)NC(C)(C)C)Cc2cccs2)cc1	i
CCn1c(NC(=O)c2cccs2)c(-c2cccs2)c(=O)c2ccccc21	0.8
Brc1ccc2c(c1)C(c1ccc(N3CCOCC3)cc1)=NNC(c1cccs1)=N2	i
O=C(NCc1cccs1)C1CCCN(S(=O)(=O)c2cnc[nH]2)C1 (stereo not drawn)	0.2
Cc1conc1NC(c1cccs1)c1ccc2cccnc2c1O (stereo not drawn)	i
CCOC(=O)c1cc(-c2ccccc2)sc1NC(=O)CSc1nnnn1C	i
COC(=O)c1c(-c2ccccc2)csc1NC(=O)CSc1ncnc2sc(C)c(C)c12	i
CCOC(=O)c1c(NC(=O)C2C3CCC(O3)C2C(=O)O)sc(C)c1-c1ccc(C)cc1 (stereo not drawn)	i
CCN(CC)C(=O)c1sc2nc(-c3ccncc3)[nH]c(=O)c2c1C	0.3
C/C(=N\OCC(=O)N/N=C/c1ccccc1)c1cccs1	0.8
Cc1cc(C(=O)NCc2ccco2)cs1	1.0
